Screening data (PubChem BioAssay)
Rango-impB inh: prevents formation of the Rango-importin beta complex | Potency, µM (top dose mostly 92.2 µM), for inactives: at the top dose inhibition of complex formation | Q14974 | 340,000 tested, 0.031% active | Rango CFP/YFP FRET sensor + importin beta, 45 min; active = rising FRET ratio curve, often small or poorly fitted; inconclusive = mostly compound fluorescence or quenching in the first reads; inactive = flat curves in all reads;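 note: potency is the fitted concentration of half-maximal effect; 0% = DMSO wells and 100% = buffer wells lacking importin beta; nearly all actives have a fitted effect of over 15% in size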
Target sequence (Q14974 whole entry, looked up): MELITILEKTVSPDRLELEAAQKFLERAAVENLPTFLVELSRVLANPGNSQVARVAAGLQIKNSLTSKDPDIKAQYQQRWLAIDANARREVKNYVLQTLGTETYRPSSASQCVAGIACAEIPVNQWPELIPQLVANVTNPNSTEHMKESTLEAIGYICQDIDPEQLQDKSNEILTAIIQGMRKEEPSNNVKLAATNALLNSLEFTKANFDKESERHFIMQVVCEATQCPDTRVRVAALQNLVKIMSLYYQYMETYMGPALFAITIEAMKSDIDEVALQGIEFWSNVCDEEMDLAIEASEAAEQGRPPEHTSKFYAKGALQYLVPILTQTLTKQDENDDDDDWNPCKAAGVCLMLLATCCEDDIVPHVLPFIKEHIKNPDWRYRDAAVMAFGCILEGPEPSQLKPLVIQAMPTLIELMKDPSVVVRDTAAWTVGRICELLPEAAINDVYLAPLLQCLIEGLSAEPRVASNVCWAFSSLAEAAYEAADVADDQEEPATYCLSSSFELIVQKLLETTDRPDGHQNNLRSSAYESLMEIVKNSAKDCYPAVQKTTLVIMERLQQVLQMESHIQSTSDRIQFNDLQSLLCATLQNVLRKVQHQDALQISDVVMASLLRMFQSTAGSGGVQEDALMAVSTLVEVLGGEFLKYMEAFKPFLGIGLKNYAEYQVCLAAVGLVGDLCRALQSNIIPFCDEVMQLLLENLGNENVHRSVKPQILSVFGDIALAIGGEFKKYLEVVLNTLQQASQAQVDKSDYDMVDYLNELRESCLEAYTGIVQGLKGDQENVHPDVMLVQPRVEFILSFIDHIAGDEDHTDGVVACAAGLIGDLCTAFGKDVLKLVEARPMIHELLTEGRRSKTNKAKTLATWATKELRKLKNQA
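FRET biosensor Rango (snurportin 1 IBB between N-terminal EYFP and C-terminal Cerulean), 50 nM in PBS/1 mM DTT/0.02% Tween-20/0.1% BSA, preincubated 5 min RT with compound; 0.125 microM importin beta added, 45 min RT, CFP/YFP FRET ratio read.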
miR-21 FLuc: miR-21 reporter, rising signal. Potency, µM (highest dose often 38.3 µM), without a hit: at the highest dose reporter change, positive = more light. 340,000 tested, under 10 active. HeLa miR-21 FLuc reporter, luciferase, 48 h. AID 2288; active = well fitted rising curve with a large enough effect; inconclusive = small, poorly fitted or top-dose-only effect; inactive = no such curve, though single readings can be large or run the other way;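 note: % of control where 0% means no effect; miR-21 action dims this reporter so a rising signal means less miR-21 action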
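HeLa cells stably expressing CMV-driven firefly luciferase with a downstream miR-21 binding sequence, endogenously expressing miR-21, were treated with titrations (up to about 40uM final) for 48 hours at 37 degree Celsius. Luciferase luminescence was read after lysis.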
Rango dissoc inh: inhibitors of RanGTP-induced Rango-importin beta complex dissociation; O95149+P62826; Biochemical FRET Rango-importin beta, RanGTP-induced dissociation; Potency, µM (doses to about 46.1 µM), for the others: at the top dose activity change, negative = inhibition; 340,000 tested, 0.071% active; active means falling FRET ratio curve, often poorly fitted, with flat reads before Ran was added; inconclusive means other falling curves, or compound fluorescence or quenching; inactive means flat or rising ratio curve;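 note: potency is the fitted concentration of half-maximal effect; % of control where 0% means no effect; nearly all actives have a fitted effect of over 45% in size; -100% = wells without RanGTP and RCC1; the record marks most hits as doubtful in a second field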
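Quantitative HTS using a FRET biosensor: 0.1 uM Rango, 0.25 uM importin beta, 0.6 uM Ran, 2 mM GTP, 0.2 uM RCC1 final, PBS with DTT, Tween-20 and BSA. Post-read taken 45 min after Ran addition.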
GLA inh pH 4.5: alpha-galactosidase A (human) inhibition, pH 4.5; 230,000 tested, under 10 active; AID 1467; P06280; activity change, negative = inhibition, % at 105 µM; purified enzyme, 4-MU-alpha-Gal fluorescence, pH 4.5; inconclusive = small, poorly fitted or top-dose-only inhibition, or a rising curve; inactive = flat fitted curve, though single readings scatter; no compound was filed as active;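 note: 0% = full activity with enzyme and -100% = basal without enzyme; dose as in the result columns while the protocol names 77 µM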
An asterisk follows results filed as active; ? = inconclusive; . = not tested or not shown; & = joins results of further samples. These rows are one share of the data; count on the stated rates, not on these rows.

SMILES	Rango-impB inh	miR-21 FLuc	Rango dissoc inh	GLA inh pH 4.5
Cc1nnc(SCc2nc3scc(-c4ccccc4)c3c(=O)[nH]2)s1	?	-2.9%	-5.5%	-19.8
O=c1c2ccccc2ncn1-c1cccc(Cl)c1	6.1%	-22.8%	-2.4%	-1.8
Cc1ccccc1-n1nc(C)c2c1N=C1C(Cl)=CC(Cl)=CN1C2c1ccc(C(=O)O)cc1 (configuration not stated)	3.3%	-4.3%	-10.6%	-0.7
O=C(COc1ccccc1)Nc1ccc2[nH]c(=O)[nH]c2c1	?	-15.5%	-11.4%	2.0
O=C(Cc1ccc([N+](=O)[O-])cc1)c1ccc(O)cc1O	-2.2%	-31.5%	2.2%	-7.0
c1csc(CCCN2CCCCC2)c1	0.2%	.	-13.4%	.
Cc1ccn2cc(C(=O)Nc3nnc(C)s3)nc2c1	-0.1%	-38.0%	6.2%	-2.4
Cc1cc2ccccn2c1C(=O)c1ccc(C#N)cc1	3.4%	-0.5%	5.5%	.
Cc1ccc(C2CC(C(F)(F)F)n3ncc(C(N)=O)c3N2)cc1 (configuration not stated)	-0.1%	-0.6%	-13.1%	0.9
COc1ccc(COC(=O)C2=C(C)NC(=O)NC2c2cc(OC)ccc2OC)cc1 (configuration not stated)	?	-2.4%	0.0%	.
CCCCCc1nnc(NC(=O)c2ccc(=O)n(C)n2)s1	3.4%	-3.1%	5.4%	-1.3
COc1cc2cnc(-c3cccnc3)cc2cc1OC	-2.2%	.	-26.1%	.
COc1ccccc1-c1nnc2n1N=C(c1ccc(O)c(O)c1)CS2	-6.3%	9.5%	4.6%	-3.0
C=CCONC(=O)c1cc(OCC(F)(F)F)ccc1OCC(F)(F)F	-1.1%	-1.6%	3.3%	-0.5
O=C(C[n+]1ccccc1)N/N=C/c1ccc(F)cc1	3.1%	0.6%	0.0%	-3.4
Cc1ccc(C(=O)Oc2ccc(-c3nnco3)cc2)o1	2.0%	.	26.5%	.
CC(=O)N1c2ccc(S(=O)(=O)N3CCC(C(=O)Nc4cccc(C)c4)CC3)cc2CC1C (configuration not stated)	3.9%	3.4%	0.4%	.
NC1=NC(=O)/C(=C\c2cc([N+](=O)[O-])ccc2Cl)S1	5.7%	-0.7%	6.4%	-1.0
CN(c1ccc(C(=O)Nc2ccc(F)cc2F)cc1)S(=O)(=O)c1ccccc1	-0.3%	2.0%	?	.
CCc1nnc(NS(=O)(=O)c2ccc(NC(=S)NC(=O)c3ccncc3)cc2)s1	1.9%	-0.4%	-12.4%	-13.9
Cc1cccc(NC(=O)CN2C(=O)S/C(=C\c3ccccn3)C2=O)c1	-1.1%	-5.9%	10.5%	2.2
Cc1c(NC(=O)CN2C(=O)NC3(CCCCC3C)C2=O)cccc1[N+](=O)[O-] (configuration not stated)	1.3%	.	-5.4%	.
CCSc1nc(=S)n(-c2ccccc2)c(C)c1C(C)=O	-2.3%	-1.5%	0.5%	8.9
O=C(COC(=O)CNC(=O)c1ccc(Cl)c([N+](=O)[O-])c1)NC(=O)CN1CCCC1=O	-1.8%	.	-0.1%	.
COC(=O)c1cccc(COC(=O)c2ccc(N(C)C)cc2)c1	0.7%	-32.5%	-5.2%	-7.4
COc1cc(O)c(C(C)=O)c2c1C=CC(C)(C)O2	-0.4%	.	0.3%	.
CCCc1cnc(N2CCN(C(=O)c3ccc(F)cc3)CC2)nc1	-0.8%	5.7%	-16.0%	.
Cc1cc(NC(=O)c2cccnc2Cl)ccc1NC(=O)c1cc2ccccc2o1	0.0%	2.5%	6.5%	.
Cc1ccccc1NC(=O)Cc1nc(COC(=O)COc2ccc(C(C)(C)C)cc2)cs1	1.0%	.	20.0%	.
CCc1cccc2c(N=O)c(O)[nH]c12	4.0%	-16.9%	4.8%	-3.2
C=CCOc1ccc(CN(C)CC(O)COc2cccc3ccccc23)cc1 (configuration not stated)	2.5%	-6.7%	2.5%	.
Cc1cc(C(=O)OCC(=O)c2ccc(Br)s2)c(C)o1	.	-21.3%	.	-0.6
Cc1ccc(NC(=O)CN2C(=O)C3CCCCN3C(=O)c3ccccc32)cc1 (configuration not stated)	-0.8%	-2.1%	2.7%	3.3
Cn1c(=O)c2c(ncn2CC(=O)N2CCN(S(=O)(=O)c3ccc(Cl)cc3)CC2)n(C)c1=O	1.1%	2.8%	6.5%	.
COc1ccc(N(CC(=O)NCCSC2CCCCC2)S(=O)(=O)c2ccc(C)cc2)cc1	1.6%	-2.4%	0.1%	.
C=CCOC(=O)c1[nH]c2c(c1C)C(=O)CC(c1cc(OC)c(OC)c(OC)c1)C2 (configuration not stated)	5.4%	19.5%	8.9%	4.8
COc1ccc(C(=O)N/N=C(\C)Cn2nc([N+](=O)[O-])cc2C)cc1	3.3%	-26.9%	0.8%	-5.0
O=C(COC(=O)c1ccccc1Br)NCC1CCCCC1	-0.5%	.	3.0%	.
Cc1ccc(-c2noc(-c3cc4ccccc4oc3=O)n2)cc1	2.5%	-13.1%	11.8%	-28.0
Cn1c(=O)n(CC(=O)NCC2CCCO2)c(=O)c2c3c(sc21)COC(C)(C)C3 (configuration not stated)	-1.0%	-1.1%	15.2%	.
CCOC(=O)N1CCN(c2c(NCC3CCCO3)c(=O)c2=O)CC1 (configuration not stated)	-3.2%	-0.8%	-31.2%	-3.3
COc1ccc(-c2nnc(N(C)C(=O)c3ccno3)s2)cc1	-0.3%	-55.0%	6.2%	3.3
C[C@@H]1COC(=O)[C@H](NC(=O)OCC2c3ccccc3-c3ccccc32)C/C=C\C[C@@H](CC(=O)N(CCO)Cc2ccccc2)C(=O)N1	4.6%	.	-5.1%	.
O=C(N/N=C\C=C\c1ccc2c(c1)OCO2)C1COc2cc3ccccc3cc2O1 (configuration not stated)	-0.3%	-2.0%	12.6%	-3.8
O=C(NCCN1CCCCC1)c1ccc(F)cc1Cl	-3.4%	-16.5%	11.1%	.
COc1ccc(NC(=O)CN(c2ccc(OC)cc2)S(=O)(=O)c2ccc(OC)c(OC)c2)cc1	2.0%	1.5%	3.0%	.
CC(OC(=O)CCCN=C1NS(=O)(=O)c2ccccc21)C(=O)Nc1ccc(F)cc1Cl (configuration not stated)	-1.4%	.	-12.6%	.
CCc1nn(CC(=O)NCCCN(CC)c2cccc(C)c2)c(=O)c2cc3occc3n12	.	0.9%	.	-0.4
COc1ccc(S(=O)(=O)Nc2cc(C(=O)NC(C)C)ccc2N2CCOCC2)cc1	8.4%	22.6%	1.2%	0.2
Cc1ccc(S(=O)(=O)c2cc3c(=O)n4cccc(C)c4nc3n(CC3CCCO3)c2=N)cc1C (configuration not stated)	?	-1.9%	?	-6.0
Other entries follow.
SMILES	Rango-impB inh	miR-21 FLuc	Rango dissoc inh	GLA inh pH 4.5
COc1ccccc1S(=O)(=O)Cc1ccc(C(=O)NCc2ccco2)o1	-0.4%	1.7%	5.1%	.
C/C(=N\Nc1cc(C(F)(F)F)ccc1Cl)c1ccncc1	-0.5%	-4.5%	-8.6%	.
COC(=O)c1cc(C)sc1NC(=O)C1CC=CCC1C(=O)O (configuration not stated)	-0.8%	-6.1%	9.5%	9.3
COc1ccc(-c2csc(NC(=O)CSCC(=O)Nc3cc(C)on3)n2)cc1OC	4.1%	.	1.6%	.
CN1C(=O)CSc2ccc(NC(=O)NCc3ccc(F)cc3)cc21	1.2%	8.4%	10.1%	-11.1
COc1cc(/C=N/NC(=S)NC2CC3CCC2C3)ccc1O (configuration not stated)	?	-61.4%	?	0.1
O=C(OCc1c(Cl)cccc1Cl)c1ccccn1	-5.0%	-6.6%	16.6%	-6.3
CCOC(=O)/C(=C/Nc1ccc(F)c(F)c1)[N+](=O)[O-]	1.0%	-0.1%	10.2%	-0.8
COCCNC(=O)c1ccc(-n2c(SCc3cc(F)ccc3F)nc3ccccc3c2=O)cc1	0.6%	-5.9%	-2.5%	-0.1
O=C(CNC(=O)c1ccco1)NCC(c1ccco1)N1CCCCC1 (configuration not stated)	-3.3%	.	7.3%	.

Compounds shown so far containing an aryl thioether with sulfur outside any ring (3):
SMILES	Rango-impB inh	miR-21 FLuc	Rango dissoc inh	GLA inh pH 4.5
Cc1nnc(SCc2nc3scc(-c4ccccc4)c3c(=O)[nH]2)s1	?	-2.9%	-5.5%	-19.8
CCSc1nc(=S)n(-c2ccccc2)c(C)c1C(C)=O	-2.3%	-1.5%	0.5%	8.9
COCCNC(=O)c1ccc(-n2c(SCc3cc(F)ccc3F)nc3ccccc3c2=O)cc1	0.6%	-5.9%	-2.5%	-0.1

The results go on:
SMILES	Rango-impB inh	miR-21 FLuc	Rango dissoc inh	GLA inh pH 4.5
NC(=O)c1cc2ccccc2o/c1=N/NC(=O)c1ccccc1	-2.3%	-22.0%	-2.1%	.
CC(/C=C1\SC(=S)N(CCC(=O)Nc2cccc(C(=O)O)c2)C1=O)=C\c1ccccc1	-3.6%	2.4%	-25.3%	.
N#CC(=Cc1ccncc1)c1ccccc1	-3.7%	.	0.3%	.
COc1ccc(-c2cc([C@H]3[C@@H]4C=CCC[C@@]4(C)C(=O)N3Cc3ccccc3)ccc2F)cc1	-3.8%	18.3%	2.0%	-4.0
O=S(=O)(c1cccs1)n1cccn1	3.1%	1.5%	-5.8%	-0.7
c1ccc(-c2nc3ccccc3c3nc4ccccc4n23)cc1	1.0%	-2.5%	-8.1%	4.6
O=C(COC(=O)Cc1cccc2ccccc12)Nc1ccccc1-c1ccccc1	3.2%	-1.6%	-27.4%	0.6
O=C(NC1CC1)c1cc(=O)c2ccccc2o1	-3.2%	0.3%	23.7%	-5.3
CCc1cccc(NC(=O)Cn2c(=O)n(CCC(=O)NCC3CCCO3)c(=O)c3cc(OC)c(OC)cc32)c1 (configuration not stated)	2.0%	-8.4%&1.6%	2.3%	.
CCOc1ccc(-n2c(=O)c3sccc3n(Cc3cccc([N+](=O)[O-])c3)c2=O)cc1	-0.5%	0.3%	-18.1%	-4.3
CC(NC(=O)Cc1cccs1)C(c1cccs1)N1CCN(c2ccccc2)CC1 (configuration not stated)	2.4%	.	2.5%	.
CCOC(=O)N1CCC(Nc2c(Nc3ccc(F)cc3)c(=O)c2=O)CC1	-1.5%	-9.9%	-1.4%	17.5
Cn1ncc(Cl)c1C(=O)N1CCN(c2ncccn2)CC1	0.1%	0.6%	-0.7%	4.8
O=C(CCCn1c(=O)c2cccn2c2cccnc21)N1CCN(c2ccccc2F)CC1	2.3%	0.1%	0.3%	.
COc1cc(F)ccc1S(=O)(=O)NCc1cccnc1	5.8%	1.2%	-1.1%	.
CCN(Cc1ccccc1)C(c1ccc(C(F)(F)F)cc1)c1nnnn1C(C)(C)C (configuration not stated)	?	.	11.1%	.
Cc1c(NC(=O)c2ccc3c(c2)C(=O)N(CC2CCCO2)C3=O)cccc1C(=O)O (configuration not stated)	-0.7%	-6.9%	21.2%	1.7
COc1ccc(Nc2nc(N)nc(CN3CCC(C)CC3)n2)cc1	?	-10.6%	-19.4%	3.2
O=C(NCc1ccccn1)c1cc(-c2ccccc2Cl)nc2ccccc12	1.6%	1.7%	1.6%	-10.1
O=C(c1ccco1)N1CCN(c2ncnc3c2oc2ccccc23)CC1	-3.1%	-49.0%	-5.2%	-7.4
CCc1ccc2[nH]c(=O)c(-c3ccccc3)c(O)c2c1	0.1%	-10.6%	15.0%	.
CCc1nc2oc3ccccc3c(=O)c2cc1C(=O)OC	1.4%	-30.0%	-0.4%	.
CCc1nnc(SCC(=O)N2CCc3ccccc32)n1CC	-0.4%	-5.0%	5.4%	.
OCCNCc1ccc(-c2ccccc2)cc1	-2.3%	-11.5%	11.7%	3.3
O=C(Nc1cccnc1)c1cc(-c2ccc(F)cc2)on1	0.9%	-0.3%	-8.2%	0.0
CC12C(=O)N(c3ccc(C(=O)N4CCOCC4)cc3)C(=O)C1C1c3ccccc3C2c2ccccc21 (configuration not stated)	.	-7.1%	.	0.2
O=C(CC(c1ccccc1)c1ccccc1)Nc1ccc2c(c1)OCCO2	-1.2%	-13.2%	-11.7%	5.0
COc1cc(Cl)c(CN2CCCC(CO)(Cc3ccccc3)C2)cc1OC (configuration not stated)	?	3.8%	-8.2%	.
COc1cc(N2C(=O)C=CC2=O)ccc1N1C(=O)C=CC1=O	-1.5%	.	-0.5%	.
CC(C)(C)S(=O)N1Cc2cn(Cc3ccccc3)c(=O)cc2[C@@H]1CCO (some centres not stated)	-2.3%	.	1.0%	.
